P. yoelii liver: Plasmodium liver-stage growth inhibition, dose response, imaging, Malaria Box, P. yoelii, HepG2-A16-CD81EGFP (AID 602156) | P. yoelii liver stage in HepG2-A16-CD81EGFP, imaging; first-round cut-off not given here | calls after a first round at 10 µM; hits with a dose series show IC50 in µM | actives 4.8% (n = 5,700); in the data active = a potency from the dose series;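 also: infected cells exposed to compound for 48 hours before fixation; stained parasite area by imaging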
Starred values were filed as active, the others as inactive; i = inactive.

CCN(CC)C/C=C/C1(O)c2ccccc2-c2ccccc21
  P. yoelii liver: i

CCOc1ccccc1NC(=O)CN1CCN(C(=O)c2ccco2)CC1
  P. yoelii liver: i

CCC(CC)CN1CCC(O)(c2ccc3oc(C(=O)Nc4ccc5c(c4)OCO5)cc3c2)CC1
  P. yoelii liver: i

COc1ccc(Nc2c3c(nc4ccc(NC(=O)c5cc(=O)c6ccccc6o5)cc24)CCCC3)cc1OC
  P. yoelii liver: i

Fc1ccc(-c2c[n+](Cc3ccc(Cl)cc3)c3n2CCC3)cc1
  P. yoelii liver: i

Cc1cccc(NC2=NC(C)(C)N=C(N)N2)c1
  P. yoelii liver: i

COC(=O)C1=C(C)N(C)C(C)=C(C(=O)OC)C1c1ccc([N+](=O)[O-])cc1
  P. yoelii liver: i

Cc1ccn(CC(=O)N2CCOc3c(cc(-c4csc5ccccc45)cc3OCCc3ccccn3)C2)n1
  P. yoelii liver: i

Cc1cccc(C)c1NC(=O)N1CCN(C2CCCCC2)CC1
  P. yoelii liver: i

O=C(Nc1ccc(-c2noc(CCc3ccccc3)n2)cc1)c1cccs1
  P. yoelii liver: i

In the list so far, these contain a furan ring, fused or not:
CCOc1ccccc1NC(=O)CN1CCN(C(=O)c2ccco2)CC1
  P. yoelii liver: i

CCC(CC)CN1CCC(O)(c2ccc3oc(C(=O)Nc4ccc5c(c4)OCO5)cc3c2)CC1
  P. yoelii liver: i

Filtered by structure, the entries above containing a carbonyl joined to an NH by a bond outside any ring.
CCOc1ccccc1NC(=O)CN1CCN(C(=O)c2ccco2)CC1
  P. yoelii liver: i

CCC(CC)CN1CCC(O)(c2ccc3oc(C(=O)Nc4ccc5c(c4)OCO5)cc3c2)CC1
  P. yoelii liver: i

COc1ccc(Nc2c3c(nc4ccc(NC(=O)c5cc(=O)c6ccccc6o5)cc24)CCCC3)cc1OC
  P. yoelii liver: i

Cc1cccc(C)c1NC(=O)N1CCN(C2CCCCC2)CC1
  P. yoelii liver: i

O=C(Nc1ccc(-c2noc(CCc3ccccc3)n2)cc1)c1cccs1
  P. yoelii liver: i

(more compounds)
c1ccc2c(c1)[nH]c1c(NCCN3CCCCC3)ncnc12
  P. yoelii liver: i

CC(NCCC(c1ccccc1)c1ccccc1O)c1ccccc1 (stereo not drawn)
  P. yoelii liver: i

Nc1cccc(Oc2ccc3c(c2)C(=O)N(c2cccc(C(=O)O)c2)C3=O)c1
  P. yoelii liver: i

O=[N+]([O-])c1ccc(N2CCCN(C(=S)Nc3ccc(F)cc3Br)CC2)nc1
  P. yoelii liver: 4.6µM*

Cc1cc2c(cc1C)N(C(=O)c1ccccc1)C(C)(C)c1ssc(=S)c1-2
  P. yoelii liver: i

COc1cc(C(=O)/C=C/Nc2ccc(N(C)C)cc2)cc(OC)c1OC
  P. yoelii liver: i

CCn1c(N=Nc2ccc(OC)cc2)nc2ccccc21
  P. yoelii liver: i

Cc1cc(NS(=O)(=O)c2ccc(NC(=O)c3ccc([N+](=O)[O-])cc3)cc2)no1
  P. yoelii liver: i

Cc1nc(N2CCCCC2)c2c(C)c(C(=O)N3CCN(c4ccccc4F)CC3)sc2n1
  P. yoelii liver: i

CN1CCN(Cc2c(O)ccc3c(=O)c(Oc4ccc(C(C)(C)C)cc4)c(C(F)(F)F)oc23)CC1
  P. yoelii liver: i

Cc1ccn2c(NC(C)(C)CC(C)(C)C)c(-c3ccccc3OC(=O)C3C[C@H]3c3ccccc3)nc2c1 (stereo partly drawn)
  P. yoelii liver: i

COc1ccccc1CNc1ncc(C(=O)NCc2ccccc2)c(NCCc2ccccc2)n1
  P. yoelii liver: i

COC(=O)c1ccc(C=NNc2cc(C)nc3ccc(OC)cc23)cc1
  P. yoelii liver: i

CCC(=O)NC(c1cccc([N+](=O)[O-])c1)c1ccc2cccnc2c1O (stereo not drawn)
  P. yoelii liver: i

O=C(Nc1cc(C(F)(F)F)cc(C(F)(F)F)c1)Nc1ccc2nnsc2c1
  P. yoelii liver: i

COc1ccc(/C=C2\SC(=Nc3ccccc3OC)NC2=O)cc1
  P. yoelii liver: i

CCCCNc1nc(NC(C)(C)C)nc(NC(C)(C)C)n1
  P. yoelii liver: i

OC(CN1CCN(C/C=C/c2ccccc2)CC1)Cn1c2ccc(Br)cc2c2cc(Br)ccc21 (stereo not drawn)
  P. yoelii liver: i

Nc1ccc2nc(C=Cc3ccc(Cl)cc3)[nH]c2c1
  P. yoelii liver: i

COc1ccccc1CNC(=O)CCC1N=C2c3ccccc3N=C(SCC(=O)Nc3ccc(F)cc3)N2C1=O (stereo not drawn)
  P. yoelii liver: i

Compounds shown so far containing a thiophene ring, fused or not, in the order listed:
Cc1ccn(CC(=O)N2CCOc3c(cc(-c4csc5ccccc45)cc3OCCc3ccccn3)C2)n1
  P. yoelii liver: i

O=C(Nc1ccc(-c2noc(CCc3ccccc3)n2)cc1)c1cccs1
  P. yoelii liver: i

Cc1nc(N2CCCCC2)c2c(C)c(C(=O)N3CCN(c4ccccc4F)CC3)sc2n1
  P. yoelii liver: i

(cont.)
CCCCNCCN1CCN(c2ccc3ccccc3c2)C[C@@H]1c1ccccc1
  P. yoelii liver: i

O=C(NC(=S)Nc1ccc([N+](=O)[O-])cc1Cl)c1ccco1
  P. yoelii liver: i

N#Cc1c(N)nc2sc(C(=O)Nc3ccc(Br)cc3)c(N)c2c1-c1ccccc1
  P. yoelii liver: i

c1ccc(Cn2c(N=Nc3c(Nc4ccccc4)ccc4ccccc34)nc3ccccc32)cc1
  P. yoelii liver: i

CC1(C)C2CCC(C2)C1(C)NC(=S)NN=Cc1ccccn1 (stereo not drawn)
  P. yoelii liver: 0.017µM*

CC(=O)N1CCOC1C(C)(C)C/C=C(\C)CCC=C(C)C (stereo not drawn)
  P. yoelii liver: i

CCCCC(=O)NC(c1cccc([N+](=O)[O-])c1)c1ccc2cccnc2c1O (stereo not drawn)
  P. yoelii liver: 0.45µM*

O=C(Nc1ccc(-c2nc3ccc(NC(=O)c4cccs4)cc3[nH]2)cc1)c1cccs1
  P. yoelii liver: i

N=c1c2c(n(Cc3ccc(F)cc3)c3c1CCC3)CCC2
  P. yoelii liver: i

COc1cc(C=C(C#N)c2nc3ccccc3[nH]2)ccc1OCc1ccccc1F
  P. yoelii liver: i

COc1ccc(-n2nc([N+](=O)[O-])c(=Nc3ccc([N+](=O)[O-])cc3C)n2O)cc1
  P. yoelii liver: i

OC(c1cc(C(F)(F)F)nc2c(C(F)(F)F)cccc12)C1CCCCN1 (stereo not drawn)
  P. yoelii liver: i

O=C1CSC(=NN=Cc2cccnc2)N1c1ccccc1
  P. yoelii liver: i

S=C(NN=CC=NNC(=S)Nc1ccccc1)Nc1ccccc1
  P. yoelii liver: i

Fc1ccc2nc(Nc3nc(-c4ccccn4)cs3)sc2c1
  P. yoelii liver: 0.044µM*

COc1cccc(Nc2nc(NCC3CCCO3)c3ccccc3n2)c1 (stereo not drawn)
  P. yoelii liver: i

CCOC(=O)c1c(-c2ccc3c(c2)OCO3)[nH]c2cc(OC)ccc2c1=O
  P. yoelii liver: i

COc1cc(/C=C2\SC(c3ccc(C)cc3)=NC2=O)cc(OC)c1OC
  P. yoelii liver: i

CCOC(=O)c1nnn(-c2nonc2N)c1-c1ccc(OC)cc1
  P. yoelii liver: i

C=CCNC(=O)c1ccc2c(c1)N=C(CC(C)c1ccccc1)N(CCCN1CCCC1=O)C2 (stereo not drawn)
  P. yoelii liver: i

COc1ccc(Nc2nc(NCc3ccco3)c3ccccc3n2)cc1
  P. yoelii liver: i

CN(C)c1ccc(C2Nc3ccccc3NC3=C2C(=O)CC(C)(C)C3)cc1 (stereo not drawn)
  P. yoelii liver: i

CCCCCCN(C(=O)c1ccc2ccccc2c1)C(CC)c1nc2ccccc2c(=O)n1-c1ccc(F)cc1 (stereo not drawn)
  P. yoelii liver: i

CN1CCN(c2c3c(c(C#N)c4nc5ccccc5n24)CCC3)CC1
  P. yoelii liver: i

COc1ccc(C=C2SC(=Nc3ccccc3OC)NC2=O)cc1
  P. yoelii liver: i

CC(=NOC(=O)c1ccco1)c1cnccn1
  P. yoelii liver: i

CN(CCCNc1ccnc2cc(Cl)ccc12)C(=O)c1ccc(F)cc1
  P. yoelii liver: i

COc1cccc(Nc2nc(NCCO)c3ccccc3n2)c1
  P. yoelii liver: 0.062µM*

CN(C)CCCn1c(N)c(-c2nc3ccccc3[nH]2)c2nc(C#N)c(C#N)nc21
  P. yoelii liver: i

CCCCOc1ccc(C(=O)Nc2cc(C)on2)cc1
  P. yoelii liver: i

CCCOC(=O)C1=C(C)NC2=C(C(=O)CC(c3ccc(Cl)cc3)C2)C1c1ccccc1F (stereo not drawn)
  P. yoelii liver: i

Clc1ccc(-c2c[n+](Cc3ccc(Cl)c(Cl)c3)c3n2CCC3)cc1
  P. yoelii liver: i

Nc1ncc(Br)cc1S(=O)(=O)NCCC(=O)N1CC=C(c2ccccc2)CC1
  P. yoelii liver: i

COc1ccc(OC)c(C2C3=C(CC(C)(C)CC3=O)N(c3ccc(Cl)c(Cl)c3)C3=C2C(=O)CC(C)(C)C3)c1
  P. yoelii liver: i

CCCCn1c(N=Nc2c(O)[nH]c3ccccc23)nc2c1c(=O)[nH]c(=O)n2C
  P. yoelii liver: i

COc1ccccc1NC1=C(N2CCCCC2)C(=O)c2ccccc2C1=O
  P. yoelii liver: i

Cc1ccc(-c2c3c(nc4sc(C(=O)Nc5ccc(F)cc5)c(N)c24)CCC3)cc1
  P. yoelii liver: i

O=C(NCc1nnc(SCC2CCCO2)n1Cc1ccccc1)c1cccc2ccccc12 (stereo not drawn)
  P. yoelii liver: i

COc1ccc(N=Nc2nc3ccc(Br)cc3n2C)cc1
  P. yoelii liver: i

Nc1c(C(=O)Nc2ccc(F)cc2)sc2nc3c(c(-c4cccs4)c12)CCCC3
  P. yoelii liver: i

COc1cc(OC)c(NC(=O)C2c3ccccc3C(=O)N(C)C2c2cccs2)cc1Cl (stereo not drawn)
  P. yoelii liver: i

CCOC(=O)N1CCN(C(=O)C(=O)NNC(=O)COc2ccc(Cl)cc2Br)CC1
  P. yoelii liver: i

CCc1ccc(C(=O)N(CCc2ccccc2)C(CC)c2nc3ccccc3c(=O)n2-c2ccccc2OC)cc1 (stereo not drawn)
  P. yoelii liver: i

CCC(=O)N1CCc2cc(Br)cc(S(=O)(=O)N3CC(C)CC(C)C3)c21 (stereo not drawn)
  P. yoelii liver: i

O=C(Nc1cccc(-c2csc(-c3ccccc3)n2)c1)c1cccs1
  P. yoelii liver: i

CCN(CC)c1ccc2c(c1)OC(N)=C(C#N)C2c1ccsc1 (stereo not drawn)
  P. yoelii liver: i

CCSC1=CC(=O)c2ccccc2C1=O
  P. yoelii liver: i

Cc1cc(Nc2ccc(O)cc2)nc2cccc(O)c12
  P. yoelii liver: i

CC1(C)C(=O)C2(CCCCC2)C(=O)OC1C=Cc1ccccc1 (stereo not drawn)
  P. yoelii liver: i

CCN(CC)CCNc1ccnc2cc3ccccc3cc12
  P. yoelii liver: i

CC1CCCCN1CCCNc1ncc(C(=O)NCCc2ccccc2)c(Nc2ccccc2)n1 (stereo not drawn)
  P. yoelii liver: i

O=C(NCCCCNc1ccnc2cc(Cl)ccc12)c1ccc([N+](=O)[O-])cc1
  P. yoelii liver: i

Arranged by count of non-hydrogen atoms (low to high): 3 of the compounds above.
CC1(C)C(=O)C2(CCCCC2)C(=O)OC1C=Cc1ccccc1 (stereo not drawn)
  P. yoelii liver: i

O=C(NCCCCNc1ccnc2cc(Cl)ccc12)c1ccc([N+](=O)[O-])cc1
  P. yoelii liver: i

CC1CCCCN1CCCNc1ncc(C(=O)NCCc2ccccc2)c(Nc2ccccc2)n1 (stereo not drawn)
  P. yoelii liver: i

Screening data from PubChem BioAssay.

A portion of the library, so the mix of outcomes need not match the whole.
